Bioassay records as filed in PubChem.
Rango-impB inh: qHTS Assay for Inhibitors of Rango (Ran-regulated importin-beta cargo) - Importin beta complex formation; AID 540263, 2011; Rango CFP/YFP FRET sensor + importin beta, 45 min; hit rate 0.031% among 340,000; Potency, µM (doses to about 92.2 µM), without a hit: top-dose inhibition of complex formation; Importin subunit beta-1 (Homo sapiens), Q14974; active = rising FRET ratio curve, often small or poorly fitted; inconclusive = mostly compound fluorescence or quenching in the first reads; inactive = flat curves in all reads;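 also: potency is read from the fitted curve at half-maximal effect; 0% = DMSO wells and 100% = buffer wells lacking importin beta; nearly all actives have a fitted effect of over 15% in size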
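FRET biosensor (snurportin 1 IBB flanked by EYFP and cerulean), 50 nM, with compound 5 min, then 0.125 microM importin beta in PBS, 1 mM DTT, 0.02% Tween-20, 0.1% BSA. CFP/YFP ratio read after 45 min at room temperature; pre-read flags interference.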
miR-21 reporter: qHTS Assay for Modulators of miRNAs and/orActivators of miR-21 | HeLa miR-21 FLuc reporter, luciferase, 48 h | Potency, µM (top dose mostly 38.3 µM), for inactives: at the top dose reporter change, positive = more light | 340,000 tested, under 10 active; active = well fitted rising curve with a large enough effect; inconclusive = small, poorly fitted or top-dose-only effect; inactive = no such curve, though single readings can be large or run the other way;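 also: % of control where 0% means no effect; miR-21 action dims this reporter so a rising signal means less miR-21 action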
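HeLa cells stably expressing CMV-driven firefly luciferase with a downstream miR-21 binding sequence, endogenously expressing miR-21, were treated with titrations (up to about 40uM final) for 48 hours at 37 degree Celsius. Luciferase luminescence was read after lysis.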
GLA inh pH 4.5: qHTS Assay for Inhibitors of Human alpha-Galactosidase at pH 4.5. Alpha-galactosidase A (Homo sapiens), P06280. purified enzyme, 4-MU-alpha-Gal fluorescence, pH 4.5. activity change, negative = inhibition, % at 105 µM. 230,000 tested, under 10 active. AID 1467, 2008; inconclusive = small, poorly fitted or top-dose-only inhibition, or a rising curve; inactive = flat fitted curve, though single readings scatter; no compound was filed as active;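 also: 0% = full activity with enzyme and -100% = basal without enzyme; dose as in the result columns while the protocol names 77 µM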
Target sequence (P06280 whole entry, looked up): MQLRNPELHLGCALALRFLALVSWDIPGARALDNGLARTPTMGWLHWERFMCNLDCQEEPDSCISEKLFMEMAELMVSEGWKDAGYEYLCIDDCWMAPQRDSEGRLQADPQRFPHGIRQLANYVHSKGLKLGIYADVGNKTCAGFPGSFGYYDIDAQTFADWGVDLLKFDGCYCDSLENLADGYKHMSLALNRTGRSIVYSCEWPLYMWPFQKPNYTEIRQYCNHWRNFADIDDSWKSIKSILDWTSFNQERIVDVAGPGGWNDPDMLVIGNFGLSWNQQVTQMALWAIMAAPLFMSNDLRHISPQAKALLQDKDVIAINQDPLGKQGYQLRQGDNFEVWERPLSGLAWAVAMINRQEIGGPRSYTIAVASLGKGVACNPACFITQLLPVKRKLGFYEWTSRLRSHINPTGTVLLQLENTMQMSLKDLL
Rango dissoc inh: qHTS Assay for Inhibitors of RanGTP induced Rango (Ran-regulated importin-beta cargo) - Importin beta complex dissociation; Snurportin-1 (Homo sapiens) + GTP-binding nuclear protein Ran (Homo sapiens) + Importin …; Biochemical FRET Rango-importin beta, RanGTP-induced dissociation; Potency, µM (doses to about 46.1 µM), without a hit: at the top dose activity change, negative = inhibition; hit rate 0.071% among 340,000; AID 540253, 2011; active means falling FRET ratio curve, often poorly fitted, with flat reads before Ran was added; inconclusive means other falling curves, or compound fluorescence or quenching; inactive means flat or rising ratio curve;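 also: potency is read from the fitted curve at half-maximal effect; % of control where 0% means no effect; nearly all actives have a fitted effect of over 45% in size; -100% = wells without RanGTP and RCC1; the record marks most hits as doubtful in a second field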
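Compounds sat 5 min at room temperature with 0.1 uM Rango biosensor plus 0.25 uM importin beta, then FRET pre-read. RanGTP-RCC1 (0.6 uM Ran, 2mM GTP, 0.2 uM RCC1) added for 45 min, and the CFP/YFP post-read measured blocked complex dissociation.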
Active calls of the source: *; ? = inconclusive; . = not tested or not shown; & = joins results of further samples; [ ] = remark or other dose. A portion of the library. The share of hits here may be higher or lower than overall.

The first two entries, ahead of the listing:
Short keys: A = Rango-impB inh; B = miR-21 reporter; C = GLA inh pH 4.5; D = Rango dissoc inh
Cc1c(CC(=O)NCCC(C)C)c(=O)oc2cc3c(cc12)CCC(C)(C)O3
  A = 1.7%	B = 3%	C = .	D = -7%
COc1ccccc1NC(=O)CSc1nncn1-c1ccccc1
  A = 0.1%	B = -8%	C = .	D = -2%

The listing, previewed entries included:
Short keys: A = Rango-impB inh; B = miR-21 reporter; C = GLA inh pH 4.5; D = Rango dissoc inh
Cc1c(CC(=O)NCCC(C)C)c(=O)oc2cc3c(cc12)CCC(C)(C)O3
  A = 1.7%	B = 3%	C = .	D = -7%
COc1ccccc1NC(=O)CSc1nncn1-c1ccccc1
  A = 0.1%	B = -8%	C = .	D = -2%
CC(Sc1ccccc1)C(=O)N/N=C/c1ccccc1 (stereo not given)
  A = -0.9%	B = .	C = .	D = -9%
CC(=O)c1cccc(S(=O)(=O)NCCC(=O)O)c1
  A = -4.1%	B = 0%	C = 5	D = -7%
O=C(Nc1cc(S(=O)(=O)N2CCOCC2)ccc1N1CCOCC1)c1cccc(S(=O)(=O)N2CCCCC2)c1
  A = -0.8%	B = -10%	C = -2	D = -5%
CN(CCc1ccccc1)C(=O)c1ccc(NC(=O)Cc2ccc(NC(=O)C3CCN(C(=O)CCc4ccccc4)CC3)cc2)cc1
  A = ?	B = .	C = .	D = -8%
CCCCc1nc2cc(C(=O)N3CCCCC3CCNC(C)=O)ccc2o1 (stereo not given)
  A = -2.0%	B = 1%	C = .	D = -25%
Cc1cc(NC(=O)COc2ccc(N(C)S(=O)(=O)c3ccccc3)cc2)no1
  A = -0.3%	B = 0%	C = 4	D = -2%
COc1ccc(-n2nc(C(=O)NCC(=O)NCC3CCCO3)c3ccccc3c2=O)cc1Cl (stereo not given)
  A = 3.6%	B = 1%	C = -2	D = -6%
COc1ccccc1NC1=CC(=O)CC(c2ccccc2)C1 (stereo not given)
  A = 2.8%	B = 12%	C = -1	D = 0%
O=C1C2CC=CCC2C(=O)N1Nc1ccccc1 (stereo not given)
  A = -1.0%	B = 0%	C = 5	D = -11%
NC(=O)C1CC(O)CN1c1nc(CN2CCOCC2)nc2scc(-c3ccccc3)c12 (stereo not given)
  A = 1.3%	B = -3%	C = -3	D = 2%
C=CCn1c(=NC(=O)c2cccs2)sc2cc(NC(C)=O)ccc21
  A = -0.2%	B = -42%	C = 8	D = 17%
O=C(Nc1ccncc1Cl)c1ccncc1
  A = -0.2%	B = 0%	C = .	D = -12%
c1ccc(C2=Nn3c(nnc3-c3ccco3)SC2)cc1
  A = -4.6%	B = -9%	C = 5	D = -6%
Cn1c(=O)[nH]c(=O)c2c1nc(N1CCCCC1)n2CC(O)COc1ccc([N+](=O)[O-])cc1 (stereo not given)
  A = -5.2%	B = 3%	C = .	D = -11%
Clc1cccc(Nc2nc(-c3ccncc3)cs2)c1
  A = 0.8%	B = -3%	C = -16	D = 25%
Cc1ccc(C(=O)N/C(=C\c2ccc(Cl)cc2)C(=O)NCC2CCCO2)cc1 (stereo not given)
  A = -0.7%	B = -3%	C = -2	D = 6%
COc1ccc(-n2nc(C(=O)NCC(=O)NC(C)C)c3ccccc3c2=O)c(OC)c1
  A = -0.4%	B = 1%	C = .	D = 3%
COc1ccc(C(CNC(=O)c2cccc(S(=O)(=O)Nc3ccccc3OC)c2)N2CCOCC2)cc1 (stereo not given)
  A = -2.4%	B = .	C = .	D = 15%
COc1cc(C(=O)Nc2ccc(OCC(=O)O)cc2)cc(OC)c1OC
  A = 2.0%	B = -2%	C = 2	D = 6%
Cc1ccc(C(=O)OCC(=O)Nc2ccccc2N2CCOCC2)cc1
  A = 7.6%	B = -2%	C = -1	D = 19%
Cc1cc(C)c(S(=O)(=O)c2ccccc2C(=O)O)c(C)c1
  A = 4.8%	B = -3%	C = -4	D = 10%
CC(C)CNC(=O)CSc1nnc(-c2ccc(Cl)cc2)n1N
  A = 0.9%	B = 1%	C = -6	D = 24%
COc1ccc(C(=O)CCC(=O)Nc2cccnc2)c(OC)c1
  A = -0.4%	B = -4%	C = .	D = 5%
COC(=O)C1=C(C)Nc2c(c(=O)n(C)c(=O)n2C)C1c1cccc(O)c1 (stereo not given)
  A = -3.7%	B = 1%	C = 1	D = -18%
CC1CC(C)CN(CCCNC(=O)CCC(=O)N2CC(C)Oc3ccccc32)C1 (stereo not given)
  A = 0.6%	B = 0%	C = .	D = 1%
COc1ccc(N2C(=O)NC3CC2(C)Oc2ccccc23)cc1 (stereo not given)
  A = 4.9%	B = -1%	C = -2[21.1 µM]	D = 26%
Nc1nc(-c2ccccc2)cn1N
  A = ?	B = -4%	C = -2	D = 21µM*
Cc1ccc(NC(=O)C2CCN(S(=O)(=O)c3ccc4c(c3)OCCO4)CC2)c(O)c1
  A = -2.2%	B = .	C = .	D = -4%
CN(CCc1ccccc1)C(=O)c1ccc(NC(=O)Cc2ccc(NC(=O)C3CCCN(C(=O)c4ccccc4)C3)cc2)cc1 (stereo not given)
  A = -4.6%	B = .	C = .	D = -8%
CC(C)(S)[C@@H](N)C(=O)O
  A = 5.2%	B = 0%	C = -2&-1	D = -11%
COC(=O)c1ccc2c(c1)C(C)(C)C(/C=C/c1ccccc1O)=[N+]2C
  A = 9.7%	B = ?	C = -10	D = 0%
CCN(CC)c1ccc(NC(=O)CNCc2ccccc2Cl)c(C)c1
  A = -3.7%	B = -12%	C = .	D = 16%
COc1cc(C(=O)NCC(C)(C)CNC(=O)c2cc(OC)c(OC)c(OC)c2)cc(OC)c1OC
  A = 0.9%	B = 0%	C = .	D = 7%
Cc1noc(C)c1CSCc1ccc(Cl)cc1
  A = -2.1%	B = -2%	C = 3	D = -2%
CC(C)c1ccc(C(N)=S)cc1
  A = -0.1%	B = -13%	C = 2	D = 9%
COc1ccc(CNC(=O)COC(=O)/C=C/c2ccc(S(=O)(=O)N3CCOCC3)cc2)cc1
  A = -0.5%	B = 0%	C = ?	D = -7%
COc1ccccc1NC(=O)Nc1nnc(C(C)c2ccccc2)s1 (stereo not given)
  A = -0.4%	B = 5%	C = .	D = 38%
CNC(=O)CSc1nnc(-c2ccccc2F)n1CCc1ccccc1
  A = -3.8%	B = 5%	C = 8	D = -3%
CC(C)NC(=O)N(C)C[C@H]1Oc2c(NC(=O)C3CCCCC3)cccc2C(=O)N([C@H](C)CO)C[C@@H]1C
  A = -3.1%	B = .	C = .	D = -14%
O=C(CCCc1ccccc1)NCCc1ccccc1
  A = -3.7%	B = -37%	C = .	D = 22%
CN1C(=O)NC2(O)C(=O)c3ccccc3C12O (stereo not given)
  A = 2.5%	B = -5%	C = 4	D = -6%
CCOc1ccc2[nH]c(=O)c(CN(Cc3ccco3)Cc3nnnn3Cc3ccccc3)cc2c1
  A = ?	B = -4%	C = -24	D = -11%
NC(=O)c1ccc(-c2nnn(CC(=O)N(C3CCCC3)C3CCS(=O)(=O)C3)n2)cc1 (stereo not given)
  A = 1.1%	B = .	C = .	D = -17%
O=C(COC(=O)c1ccco1)Nc1cc(S(=O)(=O)N2CCCCC2)ccc1Cl
  A = -1.6%	B = .	C = .	D = 4%
CCCn1c(SCC(=O)Nc2nc(C)cs2)nnc1-c1cccnc1
  A = -0.2%	B = -2%	C = 3	D = 3%
O=c1cc(CSc2nnnn2-c2ccccc2)nc2nc[nH]n12
  A = -3.2%	B = -1%	C = 11	D = 2%
CCN1CCN(C(=O)C(C)N(c2ccc(C)cc2)S(C)(=O)=O)CC1 (stereo not given)
  A = -3.1%	B = -3%	C = -2	D = -8%
CCN(C(=O)c1cccc(NC(=O)c2ccccc2)c1)C1CCCCC1
  A = -0.2%	B = 8%	C = .	D = -9%

Continued:
Short keys: A = Rango-impB inh; B = miR-21 reporter; C = GLA inh pH 4.5; D = Rango dissoc inh
COc1ccc(CCN2C(=O)C3C4CC(C5C(C(=O)O)=NOC45)C3C2=O)cc1OC (stereo not given)
  A = -2.4%	B = 1%	C = -4	D = 3%
CCc1nnc(NC(=O)c2ccc3ccccc3n2)s1
  A = 1.0%	B = -40%	C = 3	D = 12%
N#Cc1ccsc1NC(=O)COC(=O)c1cc(Br)ccc1O
  A = ?	B = -43%	C = -7	D = -22%
COc1ccc(Cl)c(Cn2c(NCCCO)nc3c2c(=O)n(C)c(=O)n3C)c1
  A = -3.2%	B = -11%	C = -2	D = -5%
CCS(=O)(=O)Nc1cccc(-c2ccc3nnc(C)n3n2)c1
  A = .	B = 9%	C = 9	D = .
CCCCC#Cc1ccc(C(=O)NNC(=O)Nc2ccccc2)o1
  A = -1.0%	B = 5%	C = -5	D = -7%
CCNc1nc(NCC)nc(N/N=C/c2ccc(N(C)C)cc2)n1
  A = 4.5%	B = -1%	C = -5	D = 0%
Cc1ccc(CNC(=O)Cn2nnc(C(=O)Nc3cccc(C)c3C)c2N)cc1
  A = 0.3%	B = -4%	C = .	D = 28%
Fc1ccc(-c2cc3nc(-c4ccccc4)cc(N4CCOCC4)n3n2)cc1
  A = ?	B = -2%	C = 2	D = -24%
Cc1cc(C)cc(NC(=O)CCc2nc3ccccc3[nH]2)c1
  A = 4.0%	B = -8%	C = 3	D = 0%
Cc1noc(C)c1C(=O)NCC1COc2ccccc2O1 (stereo not given)
  A = -5.7%	B = .	C = .	D = 12%
CN(Cc1nccn1C)C(=O)CC1C(=O)NCCN1Cc1ccccc1C(F)(F)F (stereo not given)
  A = -3.1%	B = -2%	C = 2	D = -8%
COc1cc(C=O)ccc1OCC(=O)Nc1ccccc1N1CCOCC1
  A = -2.5%	B = -3%	C = .	D = 2%
CCS(=O)(=O)Nc1c(C)n(C)n(-c2ccccc2)c1=O
  A = -1.2%	B = -3%	C = 3	D = 0%
CCOC(=O)c1[nH]c(C)c(C(=O)NC2CCCCCC2)c1C
  A = -0.3%	B = -8%	C = 6	D = -16%
Cc1ccc(N(CC(=O)Nc2ccc(S(=O)(=O)N3CCOCC3)cc2)S(C)(=O)=O)cc1C
  A = -1.6%	B = -16%	C = -17	D = -5%
COc1cccc(CN(C)CC(=O)Nc2cccc(C(F)(F)F)c2)c1OC
  A = -3.0%	B = 6%	C = ?	D = -10%
CCOC(=O)CSc1nnc(CSc2nc3ccccc3c(=O)[nH]2)n1-c1ccccc1
  A = 4.0%	B = -4%	C = -2	D = 16%

Sorted by value in miR-21 reporter (rising): 3 from the list above.
Short keys: A = Rango-impB inh; B = miR-21 reporter; C = GLA inh pH 4.5; D = Rango dissoc inh
Cc1ccc(CNC(=O)Cn2nnc(C(=O)Nc3cccc(C)c3C)c2N)cc1
  A = 0.3%	B = -4%	C = .	D = 28%
COc1cc(C=O)ccc1OCC(=O)Nc1ccccc1N1CCOCC1
  A = -2.5%	B = -3%	C = .	D = 2%
CCCCC#Cc1ccc(C(=O)NNC(=O)Nc2ccccc2)o1
  A = -1.0%	B = 5%	C = -5	D = -7%

2 entries from above, with values ahead of the structure:
Rango-impB inh,miR-21 reporter,GLA inh pH 4.5,Rango dissoc inh,mol
-1.0%,5%,-5,-7%,CCCCC#Cc1ccc(C(=O)NNC(=O)Nc2ccccc2)o1
-3.2%,-11%,-2,-5%,COc1ccc(Cl)c(Cn2c(NCCCO)nc3c2c(=O)n(C)c(=O)n3C)c1

Looked up above.
Cc1ccc(CNC(=O)Cn2nnc(C(=O)Nc3cccc(C)c3C)c2N)cc1 in Rango-impB inh: 0.3%
COc1ccc(Cl)c(Cn2c(NCCCO)nc3c2c(=O)n(C)c(=O)n3C)c1 in Rango-impB inh: -3.2%
